GLD-1 RNA inh: GLD-1-TGE RNA interaction inhibition (C. elegans); Q17339; purified GLD-1 + fluorescein TGE RNA, fluorescence polarization; inhibition, % at 5.96 µM; 320,000 compounds, 0.44% hits;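 active means percent inhibition above a per-plate cutoff, the plate mean of test compounds plus 3 SD, cut at about 30% in these data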;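 further: 0% = DMSO wells with GLD-1 and probe and 100% = wells lacking GLD-1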
MEX-5 binding: C. elegans MEX-5 TCR-2 RNA binding activity | activity score (negative = inhibition of binding), % at 10 µM | 300,000 compounds, 0.38% hits | MEX-5/FITC-TCR2 RNA binding, fluorescence polarization; stronger effect = lower value;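 active means inhibition past about -25% in most replicates, and total fluorescence under double the plate's negative control median, limit read from the data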;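 further: 0% = DMSO and -100% = 5 µM competing unlabeled TCR2 RNA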
ZTA DNA inh: ZTA (EBV) inhibition in EBNA-1 counter-screen | ZTA-DNA binding, fluorescence polarization | inhibition, % at 11 µM | 320,000 compounds, 0.15% hits | AID 2234; in the data active means inhibition above about 33%
Fam108B inh: blocks mouse Fam108B hydrolase in RBBP9 counter-screen; recombinant Fam108B, FP-Rh probe fluorescence polarization; inhibition, % at 9.51 µM; 300,000 compounds, 0.33% hits;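 active means inhibition above the screen mean inhibition plus 3 SD, computed separately per campaign, cut at about 18% in these data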;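 further: inhibitors lower polarization as less probe binds the enzyme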
CR mimetic SO: lowers age-related superoxide in aged yeast cells | S. cerevisiae aged cells, superoxide DHE fluorescence; stronger effect = lower value | superoxide response (% of plate mean), % at 10 µM | 330,000 compounds, 0.18% hits | AID 2690;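 active means superoxide response under a set limit, about three screen SD below normal, cut at about 65% in these data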;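 further: yeast aged for seven days with compound at 30 °C before DHE staining; 100% = average MFI of all compound-treated wells on the plate with controls excluded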
* marks the source's active call; other numbers are inactive results; / = not tested or not shown. An excerpt, so the mix of outcomes need not match the whole.

SMILES	GLD-1 RNA inh	MEX-5 binding	ZTA DNA inh	Fam108B inh	CR mimetic SO
O=[N+]([O-])c1cc(Cl)c(Cl)cc1Cl	3	/	-7	/	115
Brc1ccc(Oc2cc(Br)c(Br)cc2Br)c(Br)c1	4	/	9	/	116
O=C(O)CC[N+](=O)[O-]	3	-0.3	-12	-1	98
NC(=O)CN1CCCC1=O	2	0.4	5	2	110
C[N+]1(C)C2CC(OC(=O)[C@H](CO)c3ccccc3)CC1C1OC12 (stereo not given in full)	-3	/	-11	1	83
C[C@]12CCC3[C@@H](CC[C@H]4C[C@@H](O)CC[C@]34C)C1CCC2=O (stereo not given in full)	2	-0.3	-16	-4	81
NN=C(N)N	7	/	6	0	91
CCOC(=O)c1cncn1[C@H](C)c1ccccc1	-3	-1.2	-3	9	93
C[C@]12CC[C@@H](O)C[C@@H]1CC[C@@H]1[C@@H]2CC[C@]2(C)C(=O)CC[C@@H]12	8	1.7	-11	5	75
C[C@]12CC[C@H](O)C[C@@H]1CC[C@@H]1[C@@H]2CC[C@]2(C)C(=O)CC[C@@H]12	-2	-2.0	-18	-1	70
O=C(c1cc(F)ccc1F)C1CCCN(Cc2ccc3nonc3c2)C1 (stereo not given)	-1	0.5	1	2	97
CCN(CC)c1ccccc1	4	/	-5	/	137
Nc1cc(Cl)cc(C(=O)O)c1Cl	6	/	-5	/	104

Bioassay records as filed in PubChem.
